# StopGo FLuc: lowers the firefly signal of an FMDV 2A StopGo reporter. actives 0.23% (n = 120,000). HEK cells with a luciferase reporter of 2A StopGo recoding. Potency, µM (top dose mostly 57.5 µM), inactives show at the top dose signal change, negative = less light; active = well fitted falling curve with a large enough effect; inconclusive = small, poorly fitted or top-dose-only effect; inactive = no such curve, though single readings can be large or run the other way; also: nearly all actives have a fitted effect of over 60% in size; overnight with compound
# 2A Renilla: FMDV 2A StopGo reporter, Renilla signal. HEK cells with a luciferase reporter of 2A StopGo recoding. Potency, µM (doses to about 57.5 µM), without a hit: at the top dose signal change, negative = less light. actives 0.32% (n = 120,000). AID 1745857; active means well fitted falling curve with a large enough effect; inconclusive means small, poorly fitted or top-dose-only effect; inactive means no such curve, though single readings can be large or run the other way; also: nearly all actives have a fitted effect of over 55% in size; overnight with compound
# * marks the source's active call; other numbers are inactive results; ? = inconclusive; & = joins results of further samples; [ ] = remark or other dose. % is scaled to controls: 0 for no effect and ±100 for the full control effect; potency is read from the fitted curve at half-maximal effect. A portion of the library. The share of hits here may be higher or lower than overall.
# The line under a structure holds: 2A Renilla | StopGo FLuc
COc1ccc(-c2c(C)c3cc(OS(=O)(=O)c4ccc(F)cc4)ccc3oc2=O)cc1
    4% | 4%
Cc1nc2cc(F)ccc2cc1C(=O)N(Cc1cccnc1)C1CC1
    7% | 5%
CCOc1ccc(CCNC(=O)c2cnc3sc(N4CCCC4)nn3c2=O)cc1
    -11% | -10%
Cc1cccc(N2CCN(C(=O)C3CCN(S(=O)(=O)c4c(C)noc4/C=C/c4ccccc4F)CC3)CC2C)c1 (stereo not given)
    2% | -8%
COc1ccc(OC)c(C(=O)CC2(O)C(=O)N(Cc3ccccc3C)c3ccccc32)c1 (stereo not given)
    88%[activator] | -18%
O=C(NCCc1cccnc1)c1cccc(Cl)c1Cl
    19% | 34%[activator]
Cc1cc(C)n(-c2nc3cc(Cl)ccc3nc2N2CCN(c3ccccc3F)CC2)n1
    7% | 5%
C=C(C)C#CCNCc1ccccc1
    -6% | 2%
Cc1ccccc1CNC(=O)CN(c1cccc(C)c1C)S(C)(=O)=O
    -5% | -2%
COc1ccccc1NC(=O)C1CC2CCC1C2 (stereo not given)
    3% | 33%[activator]
O=C(OCc1cc(=O)oc2cc(O)ccc12)c1n[nH]c2ccccc12
    12% | 0%
O=C1NC2(CCCCCC2)NN1c1ccc(Br)cc1
    33%[activator] | 177%[activator]
Cc1ccc(C(C)C)c(OCC(=O)Nc2cc(-c3nc4ccccc4[nH]3)ccc2C)c1
    ? | 2%
CCOc1ccccc1NC(=O)Cn1c(=O)oc2ccccc21
    -6% | -13%
Cc1cccc(OCC(O)CN(Cc2ccccc2)Cc2ccccc2)c1 (stereo not given)
    35%[activator] | 6%
O=C(Nc1ccccc1Br)C1=C(c2ccccc2)S(=O)(=O)CCO1
    ? | -30%
CN(Cc1ccc(C(=O)NCC(F)(F)F)cc1)C(=O)c1cc(Cl)ccc1Cl
    21% | 9%
CCOc1cc(CNC(=O)c2ccc3c(c2)N(C)C(=O)C2CCCCN32)cc(OCC)c1OCC (stereo not given)
    34%[activator] | -10%
Cc1ccc2c(CC(=O)N(Cc3ccc(N(C)C)cc3)Cc3ccco3)coc2c1C
    0% | -9%
O=C(Nc1cccc(Br)c1)c1ccc2c(c1)CCC2
    23% | 55%[activator]

# Reprinted from the part before: two entries, followed by the next part.
# The line under a structure holds: 2A Renilla | StopGo FLuc
Cc1ccc2c(CC(=O)N(Cc3ccc(N(C)C)cc3)Cc3ccco3)coc2c1C
    0% | -9%
O=C(Nc1cccc(Br)c1)c1ccc2c(c1)CCC2
    23% | 55%[activator]
CCN1CCN(c2ncnc3c2cnn3-c2ccc(F)cc2)CC1
    3% | 114%[activator]
O=C(CCc1cccs1)Nc1ccc(N2CCOCC2)cc1
    16% | 48%[activator]
COc1ccc(-c2nc3c(c(SCC(=O)N4CCCCC4)n2)Cc2cc(C)ccc2O3)cc1
    -11% | -10%
CC(=O)Nc1nc2ccc(NC(=O)CCC(=O)N3CCCCCC3)cc2s1
    7% | 0%
C#CCOc1c(Cl)cc(/C=C(/C#N)C(=O)OCC)cc1OC
    -3% | -10%
Cc1ccc2nc(C)c(C(=O)N3CCN(Cc4ccccc4F)CC3)cc2c1
    -19% | 2%
Cc1ccccc1OCC(O)Cn1c(NCCc2ccccc2)nc2c1c(=O)[nH]c(=O)n2C (stereo not given)
    -10% | -16%
O=C(CSc1nc(-c2ccccc2)cn1-c1ccccc1)Nc1ccccc1
    0% | 0%
CCCc1cc(=O)oc2cc(OS(=O)(=O)c3cc(Br)ccc3OCC)ccc12
    50%[activator] | -2%
Cc1c(C)c2ccc(OCC(=O)NCCN(C)C)c(C)c2oc1=O
    -14% | -2%
CN(C)C(=O)c1ccc(Br)s1
    9% | 3%
CCCCNC(=O)c1cccc(I)c1
    5% | 54%[activator]
COc1cccc2cc(-c3cc(=O)oc4cc(C)c(OS(C)(=O)=O)cc34)oc12
    -9% | -5%
O=CNNC(=S)Nc1ccc(Br)cc1
    6% | 12%
Cc1ccc(CNc2oc(-c3ccccc3C)nc2C#N)cc1
    17% | 10%
Cc1cccc(N(CCC(N)=O)C(=O)c2ccc(C#N)cc2)c1
    -6% | 8%
COc1ccc(C(=O)NNc2ncnc3c2cnn3-c2cccc(Cl)c2)cc1OC
    -3% | 9%
CCCN(CCC)C(=O)Cn1c(=O)n(CCCCCC(=O)NCc2ccc3c(c2)OCO3)c(=O)c2sccc21
    -7% | 25%
COc1ccc(C(=O)c2sc(Nc3cccc(F)c3)nc2N)cc1
    32%[activator] | 176%[activator]
O=C(O)CCCC(=O)N1CCN(c2nc(-c3ccccc3)c3cc(Br)ccc3n2)CC1
    -4% | -3%

# (list continues)
# The line under a structure holds: 2A Renilla | StopGo FLuc
COC(=O)c1cc(C2CC2)nc2onc(-c3ccc(F)cc3)c12
    -3%[1.06 µM] | 17%
Cc1ccccc1NC(=O)c1ccc2[nH]c(C)c(C)c2c1
    -9%&-6% | 170%&93%[activator]
Cc1ccc(-c2cc(C(=O)Nc3nncs3)c3ccccc3n2)cc1C
    9% | 149%[activator]
O=C(CSc1nc2ccccc2[nH]1)N1CCN(S(=O)(=O)c2ccccc2)C1
    58%[activator] | 8%
Cc1c(Cl)ccc2sc(N3CCN(C(=O)CCS(=O)(=O)c4ccc(F)cc4)CC3)nc12
    ? | ?
Cc1ccnc(-c2cccc([N+](=O)[O-])c2)[n+]1[O-]
    8% | 0%
N#Cc1ccc(OCC(=O)c2ccc3c(c2)CCC3)cc1
    4%[1.06 µM] | 11%
OCc1cccc(Nc2nc(-c3cccs3)nc3ccccc23)c1
    25% | 42%[activator]
COC(=O)c1cc(C)nc2c1c(=O)nc(SCc1cccc(C(F)(F)F)c1)n2C1CC1
    54%[activator] | -22%
COc1ccc2cnn(CC(=O)NCc3ccccc3Cl)c(=O)c2c1OC
    -18% | 24%
Cc1nccn1CCc1nc2cc(NC(=O)CC(C)C)ccc2n1C
    0% | 0%
CC(=O)Nc1ccc(NC(=O)CCNS(=O)(=O)c2cccc3nsnc23)cc1
    -1% | -22%
CC(=O)c1ccc(NC(=O)CC(c2cccs2)N2Cc3ccccc3C2=O)cc1 (stereo not given)
    23% | 110%[activator]
CCOP(=O)(OCC)c1nc(Cc2ccc(OC)cc2)oc1NCc1ccco1
    10% | 4%
CC(C)c1ccc(NC(=O)C2CCCN(S(=O)(=O)c3cccc4nonc34)C2)cc1 (stereo not given)
    16% | 28%
CC1=C(c2ccc(Cl)cc2)S(=O)(=O)NC1=NCc1ccc(C)cc1
    119%[activator] | -11%
CCCc1cc(=O)oc2c(C)c(OC(C)C(=O)NCCN3CCOCC3)ccc12 (stereo not given)
    -12% | -11%
CCOc1ccc2cc(C(=O)N3CCC(N4CCCCC4)CC3)[nH]c2c1
    -17% | 0%
Cc1ccc(C2c3c(-c4ccccc4O)n[nH]c3C(=O)N2CCCO)cc1 (stereo not given)
    71%[activator] | 21%
COC(=O)c1sc(NC(=O)COc2cc(C)cc(C)c2)nc1C
    -10% | -7%

# Additional results:
# The line under a structure holds: 2A Renilla | StopGo FLuc
Cc1cc(=O)oc2c(C)c(OCC(=O)Nc3nc4ccccc4[nH]3)ccc12
    26% | 89%[activator]
O=C(Nc1ccc(F)cc1F)c1cnn2c3c(cnc12)CCCCC3
    4% | 178%[activator]
O=C(O)c1ccc(/C=C/C(=O)c2ccc(N3CCOCC3)cc2)cc1
    -19% | 0%
C/C=C/Cn1c(N2CCCCC2)nc2c1c(=O)[nH]c(=O)n2C
    -4% | 13%
Cc1onc(-c2ccccc2Cl)c1C(=O)Nc1ccc(C(N)=O)cc1
    -15% | 22%
CCOC(=O)c1cc(-c2ccc(OC)cc2)nn1Cc1ccccc1
    5% | 306%[activator]
CC1CCCCC1NC(=O)c1cc(-c2ccccc2)nc2ccccc12 (stereo not given)
    92%[activator] | 1%
O=C(/C=C/c1ccc2c(c1)OCCCO2)OCc1ccccn1
    13% | 71%[activator]
Cc1nc2nc(SCC(=O)c3ccc4ccccc4c3)[nH]c2cc1Br
    -13% | 109%[activator]
O=C(COc1ccccc1-c1noc(-c2ccc(Cl)cc2)n1)NCc1ccccc1
    3% | 20%
O=C(NC1CCSC1=O)c1cccs1 (stereo not given)
    4% | 4%
Cc1ccc(-n2nnnc2SCC(=O)N(Cc2ccco2)C2=CCCCC2)cc1C
    1% | 10%
CC(=O)c1cccc(Nc2ccc3cc(S(=O)(=O)N4CCC(C)CC4)ccc3n2)c1
    59%[activator] | 0%
CC(C)CNc1oc(COc2ccc3c(c2)OCO3)nc1C#N
    10% | 61%[activator]
O=C(Cc1csc2ccccc12)NCc1ccc(F)cc1
    -3% | 0%
Cc1cc(C)c(C(=O)NC2CCC(C)CC2)c(C)c1 (stereo not given)
    ? | ?
COc1ccc(C2C(=O)N(C3CCCCCC3)CC(=O)N2Cc2ccc(C)cc2)cc1OC (stereo not given)
    -2% | -13%
COc1cc(OC)c(OC)cc1/C=C1\Oc2cc(OS(=O)(=O)c3ccccc3)ccc2C1=O
    ? | -22%
COc1ccccc1NC(=O)C1=C(C)Nc2nc(SC)nn2C1c1cccnc1 (stereo not given)
    -5% | -5%
CC(NC(=O)c1[nH]c2ccccc2c1Cl)c1ccc(F)c(F)c1 (stereo not given)
    ? | -17%

# Carrying on.
# The line under a structure holds: 2A Renilla | StopGo FLuc
O=C(NCCc1c[nH]c2ccc(Cl)cc12)c1ccncc1
    8% | -3%
Cc1ccc(NC(=O)N2CCN(c3cc(-c4noc(C)n4)ccc3C)CC2)c(F)c1
    -1% | -16%
O=C(CCC1N=C2c3ccccc3N=C(SCc3cccc(Cl)c3)N2C1=O)N1CCN(c2ccccc2)CC1 (stereo not given)
    45%[activator] | 2%
CN(C1CCCCC1)S(=O)(=O)c1ccc2c(c1)c(=O)c(C(=O)N1CCN(c3ccc(F)cc3)CC1)cn2C
    -11% | -9%
N#Cc1nc(COc2ccccc2F)oc1N1CCN(c2ccccc2)CC1
    -1% | 24%
CC(=O)c1cccc(NC(=O)c2nc(-c3ccccc3)n(-c3ccccc3)n2)c1
    14% | 0%
Cn1c(=O)[nH]c(=O)c2c1nc(SCCO)n2CCCc1ccccc1
    9% | 15%
CCN(Cc1ccccc1)C(=O)CN1C(=O)COc2ccc(S(=O)(=O)N(CC)CC)cc21
    7% | -7%
Cc1ccc(NC(=O)C2CCCN2S(=O)(=O)c2ccc3c(c2)CCCC(=O)N3)cc1C (stereo not given)
    28µM* | 35µM*
CC(C)Cc1ccc(C(C)NC(=O)C2CC2)cc1 (stereo not given)
    -10% | 17%
Cc1cc(C)c(/C=C/c2onc(C)c2S(=O)(=O)N2CCC(C(=O)NCCc3ccccc3)CC2)c(C)c1
    -7% | -16%
COc1ccc(OC)c(-c2noc(CSc3nnc(-c4ccccc4)n3-c3ccccc3)n2)c1
    -13% | -16%
CCOC(=O)C1=C(C)N(CC)C(=O)NC1c1ccc(OC(F)F)cc1 (stereo not given)
    0% | -4%
Fc1ccccc1CSc1ccc(-c2cccs2)nn1
    32%[activator] | 223%[activator]
CC(C)(c1ccccc1)c1ccc(O)c(C(C)(C)c2ccccc2)c1
    -20% | -23%
CCCCn1c(=O)n(CC(=O)Nc2cc(C)on2)c(=O)c2c1ncn2Cc1ccccc1
    3% | 4%
CCc1noc(C)c1C(=O)OC(C)C(=O)c1c[nH]c2ccccc12 (stereo not given)
    8% | 4%
COc1ccc(OC)c(NC(=O)c2c(N3CCCC3=O)c3cc(OC)ccc3n2C)c1
    10% | 6%
Cc1cc(C)cc(NC(=O)CSc2nncn3c2cc2occc23)c1
    -10% | -9%
COc1cc(NC(=O)c2cc(-c3cccc(O)c3)on2)cc(OC)c1OC
    12% | 10%

# Fetched one by one from the entries so far (4):
# The line under a structure holds: 2A Renilla | StopGo FLuc
O=C(NCCc1c[nH]c2ccc(Cl)cc12)c1ccncc1
    8% | -3%
N#Cc1nc(COc2ccccc2F)oc1N1CCN(c2ccccc2)CC1
    -1% | 24%
CCN(Cc1ccccc1)C(=O)CN1C(=O)COc2ccc(S(=O)(=O)N(CC)CC)cc21
    7% | -7%
Cc1ccc(NC(=O)C2CCCN2S(=O)(=O)c2ccc3c(c2)CCCC(=O)N3)cc1C (stereo not given)
    28µM* | 35µM*

# (more compounds)
# The line under a structure holds: 2A Renilla | StopGo FLuc
COC(=O)c1c(SCC(=O)Nc2ccccc2C(F)(F)F)[nH]c2ccc(Cl)cc2c1=O
    -10% | -6%
O=C(CSc1nnc2[nH]c(=O)cc(-c3ccccc3)n12)Nc1cc(C(F)(F)F)ccc1Cl
    -5% | -15%
CCC(C)Nc1oc(-c2ccc(COc3ccc(Cl)cc3)o2)nc1C#N (stereo not given)
    ? | ?
CC(=O)c1ccc(NC(=O)[C@@]2(CC(=O)O)CC(c3ccc(Br)cc3)=NO2)cc1
    -4% | 7%
CC(C)(C)C(=O)NCc1ccc(-c2csc(NC3CC3)n2)s1
    4% | 155%[activator]
N#Cc1cc(C(=O)c2ccccc2O)cn(-c2ccc(C(=O)O)cc2)c1=O
    -8% | 3%
COc1ccc(NC(=O)Cn2c(C)cc3ccccc32)cc1
    -1% | 3%
Cn1cc(C(=O)O)c(=O)c2cc(S(=O)(=O)N3CCCCC3)ccc21
    8% | -4%
COc1ccc(OC)c(CCNC(=O)CCCn2c(=O)c3cccn3c3cccnc32)c1
    -12% | -16%
Clc1cccc(N2CCN(c3ncnc4nc[nH]c34)CC2)c1
    -4% | 4%
COc1ccc(NC(=O)c2ccc(NC(=O)c3ccc4ccccc4n3)cc2)cc1
    8% | 131%[activator]
Cc1cccc(Cn2c(=O)n(CC3CCC(C(=O)N4CCOCC4)CC3)c(=O)c3sccc32)c1 (stereo not given)
    -5% | -3%
Cc1ccc(C)c(NC(=O)C(C)SCc2nc(-c3ccccc3)oc2C)c1 (stereo not given)
    19% | -3%
O=C(O)CC(C(=O)O)c1ccccc1 (stereo not given)
    3% | -2%

# High-throughput results (PubChem)
